Autofluor counter – compound fluorescence in toxin protease inhibitor counterscreen; compound autofluorescence counterscreen, microsphere flow cytometry; stronger effect = higher value; fluorescence intensity (test concentration not listed); actives 3.1% (n = 360,000); AID 624483;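 active means at least 3 SD above the mean of all compounds, about 16000 in these data; inconclusive means too few beads counted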;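 further: 100 nL of 1 mM stock went into each well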
BJeLR viability – BJeLR cell viability loss. BJeLR (HRASV12) viability, CellTiter-Glo ATP luminescence, 48 h; reference of the scale not given here. inhibition, % (no concentration beside the values). actives 0.17% (n = 300,000). AID 1554;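 active means replicate mean above 50%; inconclusive means above 50% but judged a plate artefact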;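 further: 50 nL library stock added to about 25 µL; numbers are from one replicate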
RN4220 kill – S. aureus RN4220 growth inhibition; OD600, 16 h; inhibition, % (no concentration beside the values); actives 0.33% (n = 330,000);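 active means z-score of -3 or lower and OD600 up to 0.18 on both plates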;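 further: plate controls were untreated cells for no effect and reference antibiotic for full effect; stock transfer was 100 nL into about 80 µL; one replicate is shown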
Mtb hypoxia rep – reduces hypoxia-regulated biosensor signal in M. tuberculosis. actives 0.1% (n = 300,000). M. tuberculosis hypoxia-regulated fluorescent reporter, fluorescence. fluorescence inhibition, % (no concentration beside the values);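 active means 35 to 45% if threefold the growth effect, above 45% if 1.5-fold the growth effect; inactive means the rest, general growth blockers included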;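 further: wells of about 50 µL received 100 nL stock; 0% = vehicle wells and 100% = reference inhibitor wells; whole bacteria with a GFP reporter of the hypoxia response; strong numbers were not always called active; many hits fall short of the cut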
Sa ugtP lethal – compounds lethal to S. aureus RN4220 ugtP deletion mutant. OD600 growth, 16 h; some inactives read as strong as hits. growth inhibition, % (test concentration not listed). actives 0.54% (n = 330,000). AID 1259309;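 active means z-score under -3 and OD600 up to 0.15 on both plates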;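 further: plate controls were untreated wells for no effect and antibiotic for full effect; wells of about 80 µL received 100 nL stock; the first replicate is given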
PrP 5UTR inh – suppresses PrP 5' UTR mRNA reporter expression | cell-based PrP 5' UTR mRNA reporter, plate reader | AID 488862 | actives 0.35% (n = 340,000) | inhibition, % (no concentration beside the values);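 active means every replicate at 50% or more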;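 further: 0 = median of the neutral control wells; tested in H4 reporter cells; numbers are from one replicate; inactives centre near -14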
Mtb hypoxia rep growth – second read-out of Mtb hypoxia rep, no call of its own (marks repeat the call); growth inhibition, %; measured here: M. tuberculosis growth (absorbance);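 0% = vehicle and 100% = reference antibiotic; read after six days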
An asterisk follows results filed as active.

`CCC(C(=O)Nc1cc(C(=O)O)ccc1C)c1ccccc1` (stereo unspecified) gave Autofluor counter 4210, BJeLR viability -3, RN4220 kill 2.4, Mtb hypoxia rep 1, Sa ugtP lethal -5, PrP 5UTR inh -90 and Mtb hypoxia rep growth 3.
`O=C(COc1ccc(Cl)cc1)Nc1ccccc1C(=O)NCc1ccco1` gave Autofluor counter 10958, BJeLR viability 1, RN4220 kill -5.7, Mtb hypoxia rep 7, Sa ugtP lethal -3, PrP 5UTR inh -13 and Mtb hypoxia rep growth 4.
CN1CCN(c2ccc(-c3ccc4ccccc4n3)cc2)CC1 was read as Autofluor counter 4383, BJeLR viability 17, RN4220 kill -0.3, Mtb hypoxia rep -3, Sa ugtP lethal 5, PrP 5UTR inh 92* and Mtb hypoxia rep growth 7.
For COC(=O)C1CCN(C(=O)c2ccc(Cl)c(S(=O)(=O)NCc3cccnc3)c2)CC1 the results were Autofluor counter 23363*, RN4220 kill 3.8, Mtb hypoxia rep 5, Sa ugtP lethal 4, PrP 5UTR inh 10 and Mtb hypoxia rep growth 5.
O=C(O)CNC(=O)/C=C/c1c(Cl)cccc1Cl was read as Autofluor counter 4951, BJeLR viability 4, RN4220 kill 1.0, Mtb hypoxia rep 5, Sa ugtP lethal 3, PrP 5UTR inh -13 and Mtb hypoxia rep growth 16.
For CCOC(=O)N1CCN(S(=O)(=O)c2cc(OCC(=O)NC3CCCCC3)c(C)cc2Cl)CC1 the results were Autofluor counter 10037, BJeLR viability -4, RN4220 kill 1.1, Mtb hypoxia rep -9, Sa ugtP lethal -7, PrP 5UTR inh -22 and Mtb hypoxia rep growth -2.
CCOC(=O)C1CCN(C(=O)CCCn2nc(CC)n3c(cc4occc43)c2=O)CC1 was read as Autofluor counter 5823, BJeLR viability 6, RN4220 kill 3.8, Mtb hypoxia rep 6, Sa ugtP lethal 6, PrP 5UTR inh -31 and Mtb hypoxia rep growth 14.
Screening CS(=O)(=O)N1CCC(C(=O)Nc2cccc(Cl)c2)CC1 returned Autofluor counter 3328, BJeLR viability 6, RN4220 kill 0.7, Mtb hypoxia rep -5, Sa ugtP lethal -7, PrP 5UTR inh -7 and Mtb hypoxia rep growth -2.
Cc1sc2c3ccsc3ccc2[n+]1C was read as Autofluor counter 4393, BJeLR viability 4, RN4220 kill 7.9, Mtb hypoxia rep 5, Sa ugtP lethal 34, PrP 5UTR inh -14 and Mtb hypoxia rep growth 0.
`NC(=O)CC(NC(=O)c1ccccc1)c1ccc(NC2CCCCC2)c([N+](=O)[O-])c1` (stereo unspecified) gave Autofluor counter 2857, BJeLR viability 6, RN4220 kill -0.5, Mtb hypoxia rep 7, Sa ugtP lethal -18, PrP 5UTR inh -6 and Mtb hypoxia rep growth 5.
Screening O=C(CNC(=O)c1cncc(Br)c1)Nc1ccc(F)c(F)c1F returned Autofluor counter 3835, BJeLR viability -12 and PrP 5UTR inh -15.
Screening CN(CC(=O)Nc1ccccc1Br)C(=O)CN1CCN(Cc2cccc(Cl)c2)CC1 returned Autofluor counter 6049, RN4220 kill 3.9, Mtb hypoxia rep 9, Sa ugtP lethal 1, PrP 5UTR inh -14 and Mtb hypoxia rep growth 10.
`C=C1CCN(C(C)C(=O)OCc2cccc(C)c2)S(=O)(=O)c2ccccc21` (stereo unspecified) gave RN4220 kill 16, Mtb hypoxia rep -1, Sa ugtP lethal 12 and Mtb hypoxia rep growth 4.
Screening O=c1c2nnn(-c3ccccc3)c2ncn1C/C=C/c1ccccc1 returned Autofluor counter 4337, BJeLR viability -23 and PrP 5UTR inh -10.
Screening COc1ccc(C(C)=NNC(=O)c2nnn(-c3nonc3N)c2CN(C)c2ccccc2)cc1 returned RN4220 kill 3.4, Mtb hypoxia rep 0, Sa ugtP lethal -4 and Mtb hypoxia rep growth -3.
Screening CCN(CC)c1ccc(/C=N/N(c2ccccc2)c2ccccc2)c(O)c1 returned Autofluor counter 7854, BJeLR viability 2 and PrP 5UTR inh -13.
`COc1ccc(NC(=O)CCCN2C(=O)C(c3ccccc3)Oc3cccnc32)cc1` (stereo unspecified) gave Autofluor counter 5258, BJeLR viability 4, RN4220 kill -1.9, Mtb hypoxia rep 8, Sa ugtP lethal 2, PrP 5UTR inh -5 and Mtb hypoxia rep growth 2.
`CCC1C2CC3C4N(C)c5ccccc5C45CC(C2C5O)N3[C@@H]1O` (stereo partly specified) gave Autofluor counter 3876, BJeLR viability -5, RN4220 kill 2.4, Mtb hypoxia rep 13, Sa ugtP lethal 32, PrP 5UTR inh -24 and Mtb hypoxia rep growth 1.
For Cc1cccc(CSc2nnc(N)n2-c2ccccc2)c1 the results were Autofluor counter 22675*, BJeLR viability -9, RN4220 kill 8.6, Mtb hypoxia rep 11, Sa ugtP lethal 4, PrP 5UTR inh -18 and Mtb hypoxia rep growth 11.
Screening O=C(Nc1nccs1)C(F)(F)C(F)(F)C(F)(F)C(=O)Nc1nccs1 returned Autofluor counter 3342, BJeLR viability 10, RN4220 kill 10, Mtb hypoxia rep 12, Sa ugtP lethal 9, PrP 5UTR inh -22 and Mtb hypoxia rep growth 4.
`CC1CCCCN1CC(=O)Nc1sc2c(c1C#N)CCC2` (stereo unspecified) gave Autofluor counter 4808, BJeLR viability -11, RN4220 kill 0.8, Mtb hypoxia rep -3, Sa ugtP lethal 0, PrP 5UTR inh -3 and Mtb hypoxia rep growth 6.
`COC(=O)c1ccc(C)c(NC(=O)CCSc2ccccc2)c1` gave Autofluor counter 4234, BJeLR viability 2, RN4220 kill -0.8, Sa ugtP lethal -1 and PrP 5UTR inh -14.
Cc1c(NC(=O)C2CCCN2S(=O)(=O)c2ccccc2)c(=O)n(-c2ccccc2)n1C (stereo unspecified) was read as Autofluor counter 3684, BJeLR viability -4, RN4220 kill 3.4, Sa ugtP lethal 9 and PrP 5UTR inh -15.
Screening COc1ccc(NS(=O)(=O)c2cccc(C(=O)N/N=C(\C)c3ccncc3)c2)cc1 returned Autofluor counter 2592, BJeLR viability -19 and PrP 5UTR inh 17.
`CC1CC(=O)C2=C(C1)Nc1ccccc1N=C2` (stereo unspecified) gave Autofluor counter 11950, BJeLR viability -3, RN4220 kill 2.1, Mtb hypoxia rep 9, Sa ugtP lethal 11, PrP 5UTR inh -14 and Mtb hypoxia rep growth 7.
For Cc1ccc(N2CCN(C(=S)Nc3ccccc3C)CC2)cc1 the results were Autofluor counter 3767, BJeLR viability -17, RN4220 kill 2.8, Mtb hypoxia rep -7, Sa ugtP lethal 0, PrP 5UTR inh -30 and Mtb hypoxia rep growth 0.
`Cc1ccc(C(=O)NCc2ccco2)cc1[N+](=O)[O-]` gave Autofluor counter 3925, BJeLR viability 1, RN4220 kill 2.2, Sa ugtP lethal 5 and PrP 5UTR inh -6.
`C[N+]1(CC(=O)OCCCC2CCCCC2)CCCC1` gave Autofluor counter 3416, BJeLR viability -6, RN4220 kill 5.0, Mtb hypoxia rep 5, Sa ugtP lethal 5, PrP 5UTR inh -9 and Mtb hypoxia rep growth 6.
Screening CCOC(=O)Cc1nnc2c(Nc3ccccc3F)nc3nonc3n12 returned Autofluor counter 2826, BJeLR viability 12, RN4220 kill -9.3, Mtb hypoxia rep 5, Sa ugtP lethal 10, PrP 5UTR inh -21 and Mtb hypoxia rep growth 13.
For CC(Nc1nc(N2CCN(CCO)CC2)nc2ccccc12)c1ccccc1 (stereo unspecified) the results were Autofluor counter 3650, BJeLR viability 1, RN4220 kill -5.0, Mtb hypoxia rep -1, Sa ugtP lethal -3, PrP 5UTR inh -21 and Mtb hypoxia rep growth 7.

Of the compounds above, 2 contain two or more sulfur atoms.
Cc1sc2c3ccsc3ccc2[n+]1C was read as Autofluor counter 4393, BJeLR viability 4, RN4220 kill 7.9, Mtb hypoxia rep 5, Sa ugtP lethal 34, PrP 5UTR inh -14 and Mtb hypoxia rep growth 0.
Screening O=C(Nc1nccs1)C(F)(F)C(F)(F)C(F)(F)C(=O)Nc1nccs1 returned Autofluor counter 3342, BJeLR viability 10, RN4220 kill 10, Mtb hypoxia rep 12, Sa ugtP lethal 9, PrP 5UTR inh -22 and Mtb hypoxia rep growth 4.

Carrying on:
For COCCCNCCOCCOc1ccc(C)cc1[N+](=O)[O-] the results were Autofluor counter 6135, BJeLR viability -6, RN4220 kill 3.4, Mtb hypoxia rep 9, Sa ugtP lethal 4, PrP 5UTR inh -16 and Mtb hypoxia rep growth 5.
Screening CN(Cc1ccccc1)C(=O)COC(=O)c1cc(=O)[nH]c2ccccc12 returned Autofluor counter 3691, RN4220 kill 3.2, Mtb hypoxia rep 9, Sa ugtP lethal 4, PrP 5UTR inh -19 and Mtb hypoxia rep growth 13.
CC1CN(C(C)CO)C(=O)Cc2cc(NS(=O)(=O)c3cn(C)cn3)ccc2OC1CN(C)C(=O)Nc1ccc(F)cc1 (stereo unspecified) was read as RN4220 kill 8.5, Mtb hypoxia rep 17, Sa ugtP lethal -1 and Mtb hypoxia rep growth 7.
For C/C(=N\Nc1ccc(Cl)c(C(=O)O)c1)c1cc2ccccc2o1 the results were Autofluor counter 4150, BJeLR viability 2 and PrP 5UTR inh -28.
`CCOc1ccc(NC(=O)CN(C)C(=O)c2cc(C)nc3ccccc23)cc1OCC` gave Autofluor counter 4613, RN4220 kill 2.1, Mtb hypoxia rep 4, Sa ugtP lethal 6, PrP 5UTR inh 7 and Mtb hypoxia rep growth 1.
`CCCCN(CCCC)C(=O)C[n+]1cccc(C=NO)c1` gave RN4220 kill 1.0, Mtb hypoxia rep -4, Sa ugtP lethal 4 and Mtb hypoxia rep growth 3.
CC1=C(C(=O)Nc2ccccc2C(=O)NCCCOC(C)C)SCCO1 was read as Autofluor counter 3105, BJeLR viability -2, RN4220 kill 1.1, Mtb hypoxia rep -3, Sa ugtP lethal 1, PrP 5UTR inh -10 and Mtb hypoxia rep growth -2.
For COc1ccc(C(=O)Oc2ccc(/C=N/NC(=O)c3ccccc3OC)cc2[N+](=O)[O-])cc1 the results were Autofluor counter 6691, BJeLR viability 11 and PrP 5UTR inh 1.
Screening Cc1ccc(C=Nn2c(-c3cccc(Cl)c3)n[nH]c2=S)o1 returned RN4220 kill 17, Mtb hypoxia rep 7, Sa ugtP lethal 6 and Mtb hypoxia rep growth 2.
COc1ccccc1NCCC(=O)OCC(=O)NC1CCCC(C)C1C (stereo unspecified) was read as Autofluor counter 2473, BJeLR viability -4, RN4220 kill 14, Mtb hypoxia rep -2, Sa ugtP lethal -5, PrP 5UTR inh -26 and Mtb hypoxia rep growth -2.
`COn1c(-c2ccc(C)cc2)nc2ncccc21` gave Autofluor counter 4017, BJeLR viability -12, RN4220 kill 5.9, Mtb hypoxia rep 13, Sa ugtP lethal 4, PrP 5UTR inh -23 and Mtb hypoxia rep growth 19.
COc1ccc(Oc2c(C)oc3cc(OC(=O)N4CCOCC4)ccc3c2=O)cc1 was read as Autofluor counter 16237*, BJeLR viability 0, RN4220 kill -3.3, Mtb hypoxia rep 9, Sa ugtP lethal 11, PrP 5UTR inh -12 and Mtb hypoxia rep growth 8.
`COc1ccc(CCNC(=O)C(=O)NCC2OCCN2S(=O)(=O)c2cccs2)cc1` (stereo unspecified) gave Autofluor counter inconclusive, BJeLR viability 3, RN4220 kill 3.5, Mtb hypoxia rep -2, Sa ugtP lethal 3, PrP 5UTR inh -21 and Mtb hypoxia rep growth 0.
`CN1CCN(S(=O)(=O)c2cccc(C(=O)Nc3cc(C(F)(F)F)ccc3N3CCCCC3)c2)CC1` gave BJeLR viability 11, RN4220 kill -1.9, Mtb hypoxia rep 6, Sa ugtP lethal 28, PrP 5UTR inh 2 and Mtb hypoxia rep growth 0.
Screening COc1ccc(NC(=O)c2ccc3nc[nH]c3c2)cc1 returned Autofluor counter 3137, BJeLR viability -3, RN4220 kill 0.5, Mtb hypoxia rep -7, Sa ugtP lethal -2, PrP 5UTR inh -35 and Mtb hypoxia rep growth -1.
N#Cc1cc([N+](=O)[O-])cnc1N(CCO)CCO was read as Autofluor counter 2462, BJeLR viability 19, RN4220 kill 2.0, Mtb hypoxia rep 4, Sa ugtP lethal 4, PrP 5UTR inh 1 and Mtb hypoxia rep growth 2.
For CSc1ccccc1NC(=O)c1ccc(N2CCCC2=O)cc1 the results were Autofluor counter 3100, RN4220 kill 3.8, Mtb hypoxia rep 6, Sa ugtP lethal 6, PrP 5UTR inh -55 and Mtb hypoxia rep growth 7.

Screening data deposited in PubChem by several laboratories.
